Assay outcomes (PubChem)
2A Renilla = Primary qHTS Assay for Foot and Mouth Disease Virus Antivirals against NCGC Sytravon and CBC Compound Libraries: Renilla Luciferase Signal. Potency, µM (highest dose often 57.5 µM), for the others: at the top dose signal change, negative = less light. hit rate 0.32% among 120,000. HEK cells with a luciferase reporter of 2A StopGo recoding; active means well fitted falling curve with a large enough effect; inconclusive means small, poorly fitted or top-dose-only effect; inactive means no such curve, though single readings can be large or run the other way; also: nearly all actives have a fitted effect of over 55% in size; overnight with compound
StopGo FLuc = Primary qHTS Assay for Foot and Mouth Disease Virus Antivirals against NCGC Sytravon and CBC Compound Libraries: Firefly Luciferase Signal | HEK cells with a luciferase reporter of 2A StopGo recoding | Potency, µM (top dose mostly 57.5 µM), for inactives: at the highest dose signal change, negative = less light | hit rate 0.23% among 120,000 | AID 1745856, 2022; active = well fitted falling curve with a large enough effect; inconclusive = small, poorly fitted or top-dose-only effect; inactive = no such curve, though single readings can be large or run the other way; also: nearly all actives have a fitted effect of over 60% in size; overnight with compound
An asterisk follows results filed as active; ? = inconclusive; & = joins results of further samples; [ ] = another dose, or the depositor's remark. % is scaled to controls: 0 for no effect and ±100 for the full control effect; potency is read from the fitted curve at half-maximal effect. The list is partial; count on the stated rates, not on these rows.

Screens in order – 2A Renilla | StopGo FLuc
- COc1ccccc1CNC(=O)CCc1c(C)nn(-c2ccc(N3CCOCC3)nn2)c1C
 : -4% | -1%
- CCc1cccc(NC(=O)CSc2nc3c(=O)[nH]cnc3n2CC)c1
 : 11% | 16%
- C=CCSC1=N/C(=C\c2c(C)cc(C)cc2C)C(=O)S1
 : 7% | -3%
- COc1ccccc1N1CCN(c2csc3ccc(Cl)cc3c2=O)CC1
 : 30%[activator] | 15%
- CCC(=O)Oc1ccc2c(=O)c(-c3ccc(Cl)cc3)coc2c1
 : -2% | 192%[activator]
- COc1ccc(-c2cc(C(F)(F)F)nc(SCC(=O)NC(C)(C)C)n2)cc1
 : 0% | -4%
- O=C(c1ccc(Cl)c(S(=O)(=O)NC2CC2)c1)N1CCN(c2ccccc2O)CC1
 : 54%[activator] | -8%
- COc1ccc(-c2nc3sc(CCNS(=O)(=O)c4ccc(F)c(C)c4)c(C)n3n2)cc1
 : -21% | ?
- COC(=O)c1c(N)c(-c2nc3ccccc3s2)nn1-c1ccccc1
 : -3% | 91%[activator]
- CCOC(=O)c1c(NC(=O)C(C)C)sc(Cc2ccc3c(c2)OCO3)c1C
 : 14% | 23%
- Cc1ccc2nc(-c3ccccn3)c(Nc3ccccc3C)n2c1
 : ? | ?
- O=C(Nc1ccc(N2CCCCCC2)c(C(=O)O)c1)c1ccccc1Cl
 : 20% | 36%[activator]
- O=C(Nc1cc(Cl)cc(Cl)c1)c1cc(S(=O)(=O)N2CCC3(CC2)OCCO3)ccc1F
 : -19% | -17%
- O=C(c1ccccc1)c1ccc2nc(N3CCN(c4ccccc4)CC3)c3nncn3c2c1
 : -10% | -7%
- CCS(=O)(=O)N1CCc2cc(C(=O)NCc3ccccc3Cl)ccc21
 : 40%[activator] | 11%
- COc1cc(-c2ccno2)ccc1S(=O)(=O)N1CCN(c2ccccc2)CC1
 : 133%[activator] | -7%
- CN1CCc2nc(NC(=O)CN3C(=O)COc4ccccc43)sc2C1
 : -16% | -5%
- COc1ccccc1C(=O)Nc1ccc2oc(C)nc2c1
 : 13% | 201%[activator]
- CC(C)=CC(=O)N(Cc1cccs1)C1CC1
 : -1% | -4%
- COCCCNC(=O)c1ccc(Cn2c(=O)c3ccccc3n(Cc3ccc(C)cc3)c2=O)cc1
 : 0% | 6%
- Cn1nc(C(=O)Nc2ccnn2Cc2ccccc2Cl)c2ccccc2c1=O
 : 9% | 11%
- CC(C)CC(NC(=O)OCC1c2ccccc2-c2ccccc21)C(=O)O (centres undefined)
 : 12% | 183%[activator]
- CCCCn1c(=O)[nH]c(=O)c2c1nc(CSc1nnnn1-c1ccc(C)cc1)n2CCC
 : -3% | 9%
- COc1ccc(OC)c(CN2CCCCCC2c2cccs2)c1 (centres undefined)
 : 1% | 2%
- CCCc1nnc(NC(=O)c2cc(=O)c3cc(C)ccc3o2)s1
 : 8% | -8%
- COc1ccc2[nH]cc(CCNC(=O)C(C)(C)C)c2c1
 : 5% | 13%
- Cc1ccc(NC(=O)c2csc3c2CCCC3)c(C)c1
 : 20% | 187%[activator]
- CC(C)c1ccc(NC(=O)CSC2=Nc3ccccc3C3=NC(CC(=O)NCCc4ccccc4)C(=O)N23)cc1 (centres undefined)
 : 58%[activator] | 77%[activator]
- Cc1nc(CC(=O)Nc2ccc(N(C)C)cc2)cs1
 : -7% | 56%[activator]
- COc1ccc2c(C)c(CC(=O)NCc3ccco3)c(=O)oc2c1OC
 : 22% | 20%
- O=C(Nc1nnc(N2CCCCCC2)s1)Nc1ccccc1C(F)(F)F
 : -1% | 23%
- COc1ccccc1CC(=O)N1CCN(c2nc(-c3ccc(Cl)cc3)no2)CC1
 : 7.1µM* | ?
- CC(OC(=O)c1cc(=O)c2cc(Cl)ccc2o1)C(=O)N(C)c1ccccc1 (centres undefined)
 : -1% | -2%
- Cc1ccccc1OCC(=O)NCC(c1ccc(Cl)cc1)N1CCCCC1 (centres undefined)
 : 14% | -16%
- CCc1cccc(C)c1NC(=O)Cn1ncc2c3ccccc3n(Cc3ccccc3)c2c1=O
 : -3% | -9%
- CC(=O)c1cc(-c2ccccc2)n(CC(=O)Nc2ccc(C)c(C)c2)c1C
 : 10%&-10% | 15%&-11%
- N#CCCN(C(=O)CSc1nnnn1-c1cccc(Cl)c1)c1ccc(F)cc1
 : -9% | -14%
- COC(=O)c1ccc(C(=O)NCC2CCCCC2)cc1
 : 38%[activator] | 212%[activator]
- Cc1cccc(S(=O)(=O)N2CCN(c3ccc(N4CCOCC4)nn3)CC2)c1
 : -7% | -12%
- CCC1c2ccsc2CCN1C(=O)CNC(=O)c1ccccc1 (centres undefined)
 : 32%[activator] | 9%
- CCOC(=O)CN(CC)Cc1ccco1
 : 4% | 0%
- COc1ccc(C)cc1NC(=O)c1ccc(Br)o1
 : -8% | 31%
- Cc1ccccc1CNC(=O)c1ccco1
 : 6% | 12%
- Cc1ccc(CCNC(=O)c2ccc3c(=O)n(-c4ccc(C)cc4)c(=O)[nH]c3c2)cc1
 : -8% | -8%
- Cc1cc(=O)oc2cc(OCc3cccc4ccccc34)ccc12
 : 18% | 18%
- CC(CNC(=O)c1[nH]c2ccccc2c1Cl)c1ccccc1 (centres undefined)
 : 0% | 27%
- COc1ccc(-c2cc(=O)n(-c3ccc(OC)cc3)[nH]2)cc1
 : -17% | -11%
- Cc1ccc(C)c(NC(=O)CN2C(=O)CCc3cc(S(=O)(=O)N4CCCCC4)ccc32)c1
 : 142%[activator] | ?
- COc1ccc(OC(=O)c2nc(SCc3ccccc3F)ncc2Cl)cc1
 : -10% | -6%
- O=C(CN1CCCCCC1)Nc1nc(-c2ccccc2)cs1
 : 0% | 3%

An excerpt of these results, as labelled records:
> COc1cc(-c2ccno2)ccc1S(=O)(=O)N1CCN(c2ccccc2)CC1
  2A Renilla: 133%[activator]	StopGo FLuc: -7%
> CN1CCc2nc(NC(=O)CN3C(=O)COc4ccccc43)sc2C1
  2A Renilla: -16%	StopGo FLuc: -5%
> COc1ccccc1C(=O)Nc1ccc2oc(C)nc2c1
  2A Renilla: 13%	StopGo FLuc: 201%[activator]

Next section.
Screens in order – 2A Renilla | StopGo FLuc
- COc1cccc2cc(C(=O)N(Cc3ccccc3)Cc3ccccc3)c(=O)oc12
 : 33%[activator] | 17%
- CC(=O)N1CCc2nc3sc(C(=O)Nc4ccc(Cl)cc4)c(N)c3c(C(F)(F)F)c2C1
 : -12% | 26%
- CCOC(=O)c1ccc(Oc2coc3cc(OCC=C(C)C)ccc3c2=O)cc1
 : 9% | 3%
- CN(Cc1ccccc1)c1nc2c(c(=O)n(Cc3ccccc3Cl)c(=O)n2C)n1C
 : -17% | -10%
- Cc1oc(-c2ccccc2)nc1CC(=O)Nc1ccc(S(=O)(=O)N(C)C(C)C)cc1
 : -15% | ?
- Cc1ccc2occ(-c3cc(-c4ccc(Cl)cc4)nc4c3COc3ccccc3-4)c(=O)c2c1
 : 8% | 20%
- N#CC1(NC(=O)CSc2ccccn2)CCCCCC1
 : 14% | 11%
- Cc1ccc(CNC(=O)c2ccc3c(c2)nc2n3CCOC2)cc1
 : -2% | 14%
- COC(=O)c1cccc(NC(=O)N2CCc3[nH]cnc3C2c2ccc(F)c(Cl)c2)c1 (centres undefined)
 : -24% | -24%
- O=C(O)c1nn(CCOc2ccccc2)c(=O)c2ccccc12
 : 7% | 0%
- CCCCn1cc(S(=O)(=O)c2ccc(CC)cc2)c(=O)c2cc(OCC)ccc21
 : 70%[activator] | -4%
- Cc1ccc(/C=C(\C#N)C(=O)Nc2cc(C)ccc2C)cc1
 : -1% | -6%
- C#CCN1CCC(C(=O)NCC(c2ccccc2)c2ccccc2)CC1
 : 35%[activator] | -1%
- O=C(CCc1nc(-c2ccccc2)no1)NCC1CCCO1 (centres undefined)
 : -16% | -1%
- CC(C)(C)OC(=O)N1CCC(c2c(C(=O)NCc3ccc(F)cc3)cnn2-c2ccc(F)cc2)CC1
 : -9% | -21%
- CC(C)c1ccc(C2=CC(c3cccc(Cl)c3)n3c(nc4ccccc43)N2)cc1 (centres undefined)
 : -2% | -29%
- CCOC(=O)c1cc2cc(F)ccc2[nH]1
 : 19% | 0%
- CC1=C(C#N)C(c2ccccc2C(F)(F)F)C(C#N)=C(C)N1
 : 6% | -4%
- C=CC[N+](C)(C)C/C(Cl)=C(\Cl)c1ccccc1
 : -3% | -11%
- Cc1cccc(OCC(=O)Nc2ccc(OCc3cc(=O)n4cc(C)ccc4n3)cc2)c1
 : 12% | -19%
- CC(C(=O)Nc1ccc2[nH]c(=O)[nH]c2c1)N(C)Cc1ccc(Cl)c(Cl)c1 (centres undefined)
 : -10% | -3%
- Cc1nc2ccccc2n1CCc1nc2c3ccccc3nc(SCc3ccc(C#N)cc3)n2n1
 : -5% | -9%
- COc1ccc(NC(=O)c2ccc3c(SCC(=O)O)c4c(nc3c2)CCCC4)c(OC)c1
 : 4% | 0%
- COc1ccc(OC)c(NC(=O)COCc2cc(-c3ccc(F)cc3)on2)c1
 : 59%[activator] | -26%
- O=C(Cn1ccc2c(Cl)cccc21)Nc1ccc2[nH]ccc2c1
 : -4% | 2%
- COc1ccc(Nc2nc3c(S(=O)(=O)c4ccccc4)nnn3c3ccsc23)cc1OC
 : 0% | -13%
- CS(=O)(=O)N(CCCC(=O)Nc1ccccc1C(=O)NCC1CCCO1)c1ccccc1 (centres undefined)
 : 77%[activator] | 6%
- CC(C)(C)OC(=O)N/N=C/c1ccc(Cl)c(Cl)c1
 : 17% | 179%[activator]
- COc1ccc(C(=O)C(C)OC(=O)C2CCCN2)cc1 (centres undefined)
 : 7% | -8%
- COc1ccc(COC(=O)c2cc(S(=O)(=O)N3CCCCC3)ccc2N2CCOCC2)cc1
 : -2% | 1%
- Cc1c(C(=O)NCCN(C)C)oc2c1-c1nn(Cc3cccc(Cl)c3)cc1CC2
 : -14% | -20%
- Fc1ccc(N2CCN(Cc3ncc(-c4ccccc4)o3)CC2)cc1
 : -5% | 14%
- COc1cc(OC)c(NC(=O)NCCn2nnc3cc(S(=O)(=O)N(C)C)ccc32)cc1Cl
 : -6% | -23%
- O=S(=O)(Cc1cccc(F)c1)c1ccc2ccccc2c1
 : 0% | 0%
- CC(C)OC(=O)c1cc(C(=O)O)c(C(=O)OC(C)C)cc1C(=O)O
 : -8% | 0%
- O=C(NCCc1ccccc1)C1COc2ccccc2C1 (centres undefined)
 : 64%[activator] | 88%[activator]
- COc1ccc(NC(=O)C(=O)NCCc2csc3nc(-c4ccccc4C)nn23)cc1
 : -2% | -6%
- CC(=O)c1c(C)[nH]c(C(=O)C(C)OC(=O)c2ccc(F)cc2)c1C (centres undefined)
 : -6%[1.06 µM] | -24%
- O=C(c1ccc2c(c1)OCO2)c1cn(Cc2ccc(F)cc2)c2ccccc2c1=O
 : -1% | -4%
- Cc1ccc(Cl)cc1N1CCN(C(=O)C2CCN(c3nnc(-n4c(C)ccc4C)s3)CC2)CC1
 : ? | 10µM*
- Cc1cc(C)n2c(Nc3cccc(C(F)(F)F)c3)c(-c3ccsc3)nc2n1
 : 59%[activator] | -9%
- CCCNC(=O)C(C)NC(=O)CCc1c[nH]c2ccccc12 (centres undefined)
 : -14% | -12%
- Cc1cc(NC(=O)c2ccc(Br)o2)cc(-c2nc3ccccc3o2)c1O
 : -5% | -8%
- N#C/C(=C\Nc1ccc(C(N)=O)cc1)c1nc(C2CC2)cs1
 : -16% | -4%
- CC(c1nc2ccccc2c(=O)[nH]1)N(C)CCOc1ccc(Cl)cc1 (centres undefined)
 : 9% | 10%
- COc1ccc(C)cc1NC(=O)c1sc(COc2ccc(C)cc2)nc1C
 : -5% | 51%[activator]
- Cc1nc(-c2ccc(F)cc2)sc1CCNC(=O)c1ccccc1C(F)(F)F
 : 5% | 65%[activator]
- CCCOc1ccccc1C(=O)N(Cc1ccc(C(C)C)cc1)C1CCS(=O)(=O)C1 (centres undefined)
 : 5% | -9%
- COc1cc(NC(=O)COc2ccc3c(C)cc(=O)oc3c2C)cc(OC)c1OC
 : -11% | -1%
- Cc1nc(Cl)c(Cl)[nH]1
 : -1% | 0%

Next section:
Screens in order – 2A Renilla | StopGo FLuc
- Cc1ccc(CCNC(=O)c2c(C)oc3ncnc(N4CCOCC4)c23)cc1
 : 5% | 0%
- CN(Cc1ccccc1)S(=O)(=O)c1ccc(F)c(C(=O)Nc2cccc(Cl)c2Cl)c1
 : -13% | -15%
- Cc1oc(-c2ccccc2)nc1C(=O)Nc1ccc(S(=O)(=O)N(C)Cc2ccccc2)cc1
 : -11% | -9%
- O=C(CSc1cccc2cccc(Cl)c12)Nc1cccc(I)c1
 : -10%[1.06 µM] | 3%
- Cc1cccc(-c2cc(NC(=O)c3ccccc3C)n(-c3ccccc3)n2)c1
 : 44%[activator] | 113%[activator]
- CCOc1ccc(-c2nn(-c3ccccc3)cc2C2NC(=O)NC(C)=C2C(=O)OC(C)C)cc1C (centres undefined)
 : 2%&36% | 20%&5%
- C=Cc1ccc(CN2C(=O)N(c3cc(OC)cc(OC)c3)S(=O)(=O)c3ccccc32)cc1
 : 4% | -4%
- CC1=C(C(N)=O)C(c2ccccc2Br)n2ncnc2N1 (centres undefined)
 : -5% | -10%
- CCOc1cc(CNC(=O)c2ncoc2-c2cccs2)cc(OCC)c1OCC
 : 23% | 0%
- O=C(NC1CCN(Cc2ccccc2)CC1)c1ccc(Cn2c(=O)c3ccccc3n(Cc3ccccc3)c2=O)cc1
 : 1% | 15%
- Cc1ccc(C)c(NC(=O)CN2CCN(S(=O)(=O)c3cccs3)CC2)c1
 : 3% | -4%
- N#CCCN(C(=O)CSc1nnnn1-c1ccc(O)cc1)c1cccc(Cl)c1
 : 15% | 0%
- Cc1ccc(C)c(OCCn2cc(C(=O)C(F)(F)F)c3cc(Br)ccc32)c1
 : 6% | 9%
